Compound activity as filed in PubChem BioAssay.
Prx2 Sm inh = inhibitors of Schistosoma mansoni peroxiredoxin 2; S. mansoni Prx2 activity coupled to TGR/GSH (TGR is thioredoxin glutathione reductase), NADPH fluorescence loss, qHTS; some inactives read as strong as hits; Potency, µM; 0.07% of 65,000 active; AID 448; active means full or partial inhibition curve with a strong effect at the top dose; inconclusive means weaker partial or single-point curve; inactive means no accepted curve; further: series up to 57 µM; many of its hits are not listed in these tables
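qHTS, coupled TGR/Prx2 format; 15 min compound preincubation at RT; reaction started with H2O2 (2.5 mM aliquot); kinetic NADPH fluorescence decrease, ex 365/em 450 nm.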
Anthrax LT inh = anthrax lethal toxin internalization inhibition; Cells, anthrax lethal toxin internalization, FRET ratio (460/530); Potency, µM (series often up to 40 µM), inactives show top-dose activity change, negative = inhibition, most hits filed as inhibitors; 0.67% of 70,000 active; AID 912; active = well fitted falling ratio curve with the 530 nm signal flat; inconclusive = other ratio curves, or a change in one channel alone; inactive = flat curves in the ratio and both channels; the % refers to the ratio; further: on the % scale 0 is the no-effect control and ±100 the full control effect; nearly all actives have a fitted effect of over 50% in size; tested in ME-180 cells; beta-lactamase reporter
* = called active by the depositor; ? = inconclusive; · = no result given; & = joins results of further samples; [ ] = dose if it differs, or a comment. Potency means the concentration at half of the fitted maximal effect.

canonical_smiles | Prx2 Sm inh | Anthrax LT inh
COc1cccc(OCc2nc3c4cnn(-c5ccccc5)c4ncn3n2)c1 | >57 | 15%
Oc1c(Cl)cc(C(c2cc(Cl)c(O)c(Cl)c2)C(c2cc(Cl)c(O)c(Cl)c2)c2cc(Cl)c(O)c(Cl)c2)cc1Cl | >57 | -8%[8 µM]
COc1ccc(OC)c2[nH]c(=O)c(CCNS(=O)(=O)c3ccccc3)cc12 | >57 | 8%
CCn1c(SCC(=O)c2ccc3c(c2)OCCO3)nnc1C(C)C | >57 | 7%
COc1ccc2c(c1)CCc1c(C(=O)NCCN3CCOCC3)noc1-2 | >57 | 1%
COc1ccccc1CNc1cc(-c2cccnc2)ncn1 | >57 | ?
COc1ccccc1CN1CCCCC1c1cccnc1 (centres undefined) | >57 | -3%
OC(COCc1ccc(Cl)cc1)CN1CCN(CC(O)COCc2ccc(Cl)cc2)CC1 (centres undefined) | >57 | -26%
COC(=O)c1c(C)oc2ccc(OC(=O)c3cccs3)cc12 | >57 | -10%
COc1ccc(-c2nc(CSCC(=O)N3CCN(C4CCCCC4)CC3)c(C)o2)cc1OC | >57 | -3%
Cn1cccc1C(=O)N1CCC[C@@]2(CCN(c3ccncc3)C2)C1 | >57 | 7%
CCN1C(=S)SC(=O)C1=C1C=C(C)N(Cc2ccco2)C(C)=C1 | >57 | -28%
CCc1ccccc1N(CC(=O)OC)S(C)(=O)=O | >57 | 1%
COc1ccc(CCC(=O)c2c(O)cc(O[C@@H]3O[C@H](CO)[C@@H](O)[C@H](O)[C@H]3O[C@@H]3O[C@@H](C)[C@H](O)[C@@H](O)[C@H]3O)cc2O)cc1O | · | -8%
CC(=O)NC1(c2ccccc2)CCN(C(=O)N2CCOCC2)CC1 | >57 | -4%
O=C(Nc1ccc2c(c1)OCCO2)C1CCCN1S(=O)(=O)c1cccc2cccnc12 (centres undefined) | >57 | -8%
CO[C@@H]1COC(=O)CC=C[C@@H](C)[C@@H]2C=C[C@@H](O)[C@@H](COC(=O)C/C=C\[C@H]1C)O2 | · | 4%[8 µM]
CC(C)[C@@H](OCc1ccccc1)[C@H](C)CO/N=C1/[C@H]2OC2[C@@H](O)[C@H]2[C@H]1CCn1c(=O)n(-c3ccccc3)c(=O)n12 (some centres undefined) | · | -11%[8 µM]
Cc1ccc(SCc2[nH]nc3c2C(c2cccnc2)C(C#N)=C(N)O3)cc1 (centres undefined) | >57 | ?
Cc1nc2cnc(Oc3cccc(Cl)c3)nc2n(CCC#N)c1=O | >57 | ?
Cc1sc2nc(SCc3nnc(-c4cccs4)o3)n(C3CCCC3)c(=O)c2c1C | >57 | 1%
O=C(c1cc2ccccc2o1)n1nnc2ccccc21 | >57 | 12%
Cc1ccccc1-c1nc(CS(=O)(=O)CC(=O)NCCN2CCOCC2)c(C)o1 | >57 | -12%
COC(=O)C/C=C\[C@@H](C)[C@@H](/C=N\O[C@@H](C)c1cc(-c2c(C)cc(C)cc2C)no1)OC | · | ?

The last two records of the part before come first, to join the parts:
canonical_smiles | Prx2 Sm inh | Anthrax LT inh
Cc1ccccc1-c1nc(CS(=O)(=O)CC(=O)NCCN2CCOCC2)c(C)o1 | >57 | -12%
COC(=O)C/C=C\[C@@H](C)[C@@H](/C=N\O[C@@H](C)c1cc(-c2c(C)cc(C)cc2C)no1)OC | · | ?
Cc1cc2c(c(=O)o1)C1(C(=O)N(C)c3ccccc31)C(C#N)=C(N)O2 (centres undefined) | >57 | 6%
C=CCOc1ccc(C2N3CC4(C)CN2CC(CCC)(C3)C4=O)cc1 (centres undefined) | >57 | 2%
O=C1CC(c2ccco2)Cc2nc(NCC3CCCO3)ncc21 (centres undefined) | >57 | 2%
CC(C)OC(=O)CSc1nnc(-c2ccc(O)cc2)n1Cc1ccccc1 | >57 | -24%
CC(C)Cc1cc(C(=O)O)n[nH]1 | >57 | -1%
O=C(Cc1ccc(S(=O)(=O)N2CCOCC2)s1)Nc1ccc2c(c1)CCC2 | >57 | -24%
CC(=O)OCC(=O)[C@@]1(OC(C)=O)[C@H](C)C[C@H]2[C@@H]3C[C@H](F)C4=CC(=O)C=C[C@@]4(C)[C@]3(F)[C@H](O)C[C@@]21C | >57 | ?
Cc1ccc(S(=O)(=O)NC2=NCN(CCN3CCOCC3)CN2)cc1 | >57 | 19%
CCn1c(-c2cc(OC)c(OC)c(OC)c2)n[nH]c1=S | >57 | -5%
CCCC1C2CN(C(C)C)CC=C2C(C#N)=C(N)C1(C#N)C#N (centres undefined) | >57 | ?
COc1cccc(CN(C(=O)c2ccco2)C(C(=O)NC2CCCC2)c2cccnc2)c1 (centres undefined) | >57 | -10%
CCCn1c(=O)c2ccccc2n2c(SCN3C(=O)c4ccccc4C3=O)nnc12 | >57 | 11%
CCCC(=O)Nc1nn(C)c2nc3cc(C)ccc3cc12 | >57 | 0%
O=c1c(N2CCOCC2)nsnc1N1CCOCC1 | · | -4%
CC(C)(C)c1[nH]nc2c1C(Cc1ccccc1)C(C#N)=C(N)O2 (centres undefined) | >57 | -16%
CCN(CC)C(=O)C(C)N(C#N)c1nc(NC(C)C)nc(NC(C)C)n1 (centres undefined) | · | ?
CCCn1nc(C(=O)NCCN2CCOCC2)c2ccccc2c1=O | >57 | 19%
COc1ccc(C(=O)N2CCCCC2)cc1S(=O)(=O)Nc1ccccc1 | >57 | 3%
O=c1c2cccc3c(N4CCOCC4)ccc(c32)c2nc3ccccc3n12 | >57 | 9%
COc1ccc(N2CCN(Cc3cc(=O)oc4cc(C)c(Cl)c(C)c34)CC2)cc1 | >57 | ·
CCOC(=O)C1CCN(C(=O)CC(NS(=O)(=O)c2ccc(OC)cc2)C(C)C)CC1 (centres undefined) | >57 | 5%
COc1ccc(C(=O)NC2CCN(C(=O)NC3CCCCC3)CC2)cc1 | >57 | -3%
CSc1ccccc1NC(=O)c1cc(-c2cccs2)on1 | >57 | -20%
Cc1noc(C)c1S(=O)(=O)N1CCC(C(=O)NCCN2CCC(C)CC2)CC1 | >57 | 1%
CC1CC(C(O)c2ccccn2)C(=O)C(C(O)c2ccccn2)C1 (centres undefined) | >57 | -15%
COc1ccc(N(C(=O)c2ccco2)C(C(=O)NC2CCCC2)c2ccc(N(C)C)cc2)cc1OC (centres undefined) | >57 | -23%
COc1ccc(N2C(=O)CSC23C(=O)Nc2ccccc23)cc1OC (centres undefined) | >57 | -16%
Cc1ccc(/C=c2\sc3nc(-c4ccco4)nn3c2=O)o1 | >57 | -19%
O=c1c2ccccc2sn1-c1cc(S(=O)(=O)N2CCOCC2)ccc1N1CCOCC1 | >57 | 0.16µM*
CN(C)C(CNC(=O)C1CCCN(C(=O)c2ccc(Cl)cc2)C1)c1ccco1 (centres undefined) | >57 | 4%
N#Cc1ccc(CSCC(=O)O)cc1 | · | 6%
COc1cc2nc(SCC(N)=O)n(CCC3=CCCCC3)c(=O)c2cc1OC | >57 | 2%
CC(c1ccccc1)N1CC(C(=O)NC2CCCC2)CC1=O (centres undefined) | >57 | -8%
CCCCNC(=O)C1COc2ccccc2O1 (centres undefined) | >57 | 0%
COc1ccc(N(CC(=O)NC2CCCC2)C(=O)Cn2nnc(-c3ccc(C)cc3)n2)cc1 | >57 | -13%
CCOc1ccccc1N(C(=O)c1snc(C(N)=O)c1N)C(C(=O)NC1CCCC1)c1ccco1 (centres undefined) | >57 | -11%
Cn1c2ccccc2c2c(C(=O)O)cn(C3CCCC3)c(=O)c21 | >57 | 7%
CSc1nc(C)cc(Oc2ccc(=O)n(C)n2)n1 | >57 | ?
CCOC(=O)c1c(C)n(C)c2ccc(OC)c(NS(=O)(=O)c3ccc(Cl)s3)c12 | >57 | 2%
CC(C)(C)NC(=O)C(c1ccco1)N(C(=O)c1ccc(CN2CCOCC2)o1)c1ccccc1 (centres undefined) | >57 | 2%
COc1cc(S(=O)(=O)n2nnc3ccccc32)c(OC)cc1Cl | >57 | 28%
Cc1ccc(OCc2nnc(NC(=O)Cc3cccs3)s2)cc1 | >57 | -4%
O=C(CC(c1ccco1)C1CCCCC1=O)c1ccco1 (centres undefined) | >57 | 8%
Cc1cc(C(C)(C)C)oc1C(=O)Nc1ccc(CC(=O)O)cc1 | · | 1%
Cc1ccc(-c2nnc3sc(-c4ccncc4)nn23)cc1 | >57 | -5%
O=S(=O)(NC1CCCCC1)c1ccc(Br)cc1 | · | -6%
ClC(=Nc1cccc2ccccc12)N(c1ccccc1)c1ccccc1 | >57 | -15%[8 µM]
COCc1[nH]nc2c1C(c1ccccc1OC)C(C#N)=C(N)O2 (centres undefined) | >57 | 4%

New compounds follow
Values run as follows: Prx2 Sm inh, Anthrax LT inh
- C=CCOC(=O)C(C(C)=O)C(NC(=O)OC)c1cccc(C(F)(F)F)c1 (centres undefined)
→ ·, 2%[8 µM]
- CCOC(=O)N1CCN(c2ncnc3c2oc2nc(C)c4c(c23)CC(C)(C)OC4)CC1
→ >57, ·
- O=C(c1cccc2c1-c1ccccc1/C2=N/O)N1CCCCC1
→ ·, ?
- Cc1cc(C)nc(N2CCCC(C(=O)Nc3nc4ccc(S(C)(=O)=O)cc4s3)C2)n1 (centres undefined)
→ >57, ?
- COC(=O)C1=C(N)Oc2cc(C)n(CC3CCCO3)c(=O)c2C1c1ccccc1OC (centres undefined)
→ >57, 0%
- CC(C)C(=O)NC(C)C(c1cccs1)N1CCN(c2ccccc2)CC1 (centres undefined)
→ >57, -8%
- c1ccc(Cn2ccnc2-c2ccco2)cc1
→ >57, -4%
- CC(=O)Nc1cccc(NC(=O)Nc2ccc(C(C)=O)cc2)c1
→ >57, 2%
- Cc1nnc2n(C3CCCCC3)c(=O)c3c4c(sc3n12)CCC4
→ >57, -2%
- O=[n+]1c2c(n([O-])c3cc(F)c(N4CCCC4)cc31)CCC2
→ >57, 8%
- Cc1cc(Br)c(S(=O)(=O)NCCN2CCOCC2)cc1C
→ ·, -20%
- CCOc1ccc2nc(NCCNC(=O)CC)c(C#N)cc2c1
→ >57, -1%
- CC(C)(C)OC(=O)N1CCC(C(=O)N[C@H](Cc2ccccc2)C(=O)O)CC1
→ >57, 0%
- C=CCC1C=CC(Oc2ccc(F)cc2C)C(CO)O1 (centres undefined)
→ ·, -13%[8 µM]
- CCCc1ccc(-c2ccc(F)c(N)c2)nc1
→ ·, -25%
- CC1CCCCN1CCNc1nc(=S)[nH]c2ccccc12 (centres undefined)
→ >57, 10%
- CC1CCC(C(=O)NC(C(=O)N2CCC(N3CCCCC3)CC2)C(C)C)CC1 (centres undefined)
→ >57, 0%
- CC(O)[C@H](NC(=O)C1(c2ccccc2)CCN(C(=O)OC(C)(C)C)CC1)C(=O)O (some centres undefined)
→ >57, ·
- COc1ccccc1CNS(=O)(=O)c1ccc2[nH]cc(C(=O)O)c(=O)c2c1
→ >57, -6%
- COc1ccc(C)cc1S(=O)(=O)N(CC(=O)O)c1ccccc1
→ >57, ?
- O=C(Cc1cccs1)Nc1nc2c(s1)CCCC2
→ >57, -4%
- OCc1nn2c(c1Br)NC(c1ccccc1)CC2C(F)(F)F (centres undefined)
→ >57, -6%
- O=C(Nc1ccccc1)N1CC[C@@]2(CCCN(C(=O)c3csnn3)C2)C1
→ >57, -1%
- CCn1c(SCC(=O)NCc2ccc(C)cc2)nnc1-c1ccncc1
→ >57, 8%
- CC(=O)Nc1ccc(NC(=O)Oc2ccccc2)cc1
→ >57, 4%
- CCN(CC)c1nc(Nc2ccccc2)nc(Oc2ccc(=O)[nH]n2)n1
→ >57, -17%
- Nc1cc(C2CCCC2)nn1-c1ccccc1
→ >57, 2%
- COC(=O)c1nnn(-c2nonc2N)c1CN1CCc2ccccc21
→ >57, -10%
- O=P1(N(CCCl)CCCl)NCCCO1 (centres undefined)
→ >57, -2%&4%

Grouped by structure, the compounds so far with two or more sulfur atoms.
Values run as follows: Prx2 Sm inh, Anthrax LT inh
- CCN1C(=S)SC(=O)C1=C1C=C(C)N(Cc2ccco2)C(C)=C1
→ >57, -28%
- Cc1sc2nc(SCc3nnc(-c4cccs4)o3)n(C3CCCC3)c(=O)c2c1C
→ >57, 1%
- O=C(Cc1ccc(S(=O)(=O)N2CCOCC2)s1)Nc1ccc2c(c1)CCC2
→ >57, -24%
- CSc1ccccc1NC(=O)c1cc(-c2cccs2)on1
→ >57, -20%
- O=c1c2ccccc2sn1-c1cc(S(=O)(=O)N2CCOCC2)ccc1N1CCOCC1
→ >57, 0.16µM*
- CCOC(=O)c1c(C)n(C)c2ccc(OC)c(NS(=O)(=O)c3ccc(Cl)s3)c12
→ >57, 2%
- Cc1ccc(OCc2nnc(NC(=O)Cc3cccs3)s2)cc1
→ >57, -4%
- Cc1cc(C)nc(N2CCCC(C(=O)Nc3nc4ccc(S(C)(=O)=O)cc4s3)C2)n1 (centres undefined)
→ >57, ?
- O=C(Cc1cccs1)Nc1nc2c(s1)CCCC2
→ >57, -4%

Only part of the results is shown; rates above refer to the full screens.
